# Screening results: PubChem, National Center for Advancing Translational Sciences (NCATS)
# StopGo FLuc = FMDV 2A StopGo reporter, firefly signal | AID 1745856 | 120,000 compounds, 0.23% hits | Potency, µM (titrated, usually from 57.5 µM), for inactives: top-dose signal change, negative = less light | HEK cells with a luciferase reporter of 2A StopGo recoding; active = well fitted falling curve with a large enough effect; inconclusive = small, poorly fitted or top-dose-only effect; inactive = no such curve, though single readings can be large or run the other way; further: nearly all actives have a fitted effect of over 60% in size; overnight with compound
# 2A Renilla = lowers the Renilla signal of an FMDV 2A StopGo reporter; HEK cells with a luciferase reporter of 2A StopGo recoding; 120,000 compounds, 0.32% hits; Potency, µM (titrated, usually from 57.5 µM), without a hit: at the top dose signal change, negative = less light; active means well fitted falling curve with a large enough effect; inconclusive means small, poorly fitted or top-dose-only effect; inactive means no such curve, though single readings can be large or run the other way; further: nearly all actives have a fitted effect of over 55% in size; overnight with compound
# Starred values were filed as active, the others as inactive; ? = inconclusive; & = joins results of further samples; [ ] = remark or other dose. On the % scale 0 is the no-effect control and ±100 the full control effect; potency means the concentration at half of the fitted maximal effect.
SMILES,StopGo FLuc,2A Renilla
CC(=O)c1cccc(NC(=O)c2cc3c(s2)-c2c(C)cccc2OC3)c1,-3.1%,-16.8%
CCCSCCCNC(=O)CS(=O)(=O)Cc1nc(-c2ccc(C)cc2)oc1C,-3.8%,-2.6%
COc1ccc(CNC(=O)c2cc(C(C)C)nc3onc(C)c23)cc1OC,-15.2%,-23.2%
CCCN1CCC(N(C)C(=O)NCc2ccccc2F)CC1,-8.2%,-8.7%
Cc1ccccc1C(=O)NC1CCN(C(C)C)CC1,7.2%,-2.5%
Cc1cccc(-n2ncc3c(N4CCCCCC4)ncnc32)c1,56.0%[activator],-9.4%
O=C(Nc1c(C(=O)Nc2ccc(F)cc2)oc2ccccc12)c1cc2ccccc2o1,84.0%[activator],-5.2%
Cc1ccc(Cn2c(=O)n(CCc3ccccc3)c(=O)c3sc4ccccc4c32)cc1,91.5%[activator],-4.8%
COC(=O)c1ccccc1NC(=O)c1cc(CN2CCOCC2)on1,8.2%,-2.5%
CCn1c(N2CCN(Cc3ccc(Br)cc3)CC2)nc2c1c(=O)[nH]c(=O)n2C,-9.1%,-15.5%
COc1ccc(NCc2cccn2-c2nnc(N3CCOCC3)s2)c(OC)c1,41.7%[activator],-4.3%
Cc1cc(C)c2oc(C(=O)Nc3ccc(S(=O)(=O)Nc4ncccn4)cc3)cc(=O)c2c1,-1.6%&2.1%,0.1%&-7.4%
Cc1cc(Br)ccc1-n1cccc1C=O,16.4%,-8.5%
CNc1c(NC(=O)NCc2ccc(F)cc2)c(=O)oc2ccccc12,0.0%,1.0%
O=C(Nc1ccccc1C(=O)N1CCN(C(c2ccccc2)c2ccccc2)CC1)C1CC1,-17.5%,4.5%
CCCOC(=O)c1ccc(NC(=O)CC(C)(C(=O)O)c2ccccc2)cc1 (stereo not given),0.0%,3.7%
CCOC(=O)N1CCN(S(=O)(=O)N2CCCC(C(=O)NCc3cc(Br)ccc3OC)C2)CC1 (stereo not given),-8.7%,3.8%
CCOC(=O)CSc1nc(N)c2c3c(sc2n1)CCCC3C (stereo not given),26.5%,-1.0%
O=C(NC1=NCCS1)c1cc2ccccc2s1,129.0%[activator],0.0%
CNC(=O)NC(=O)C(C)SC(C)c1ccccc1F (stereo not given),7.4%,0.4%
Cc1ccsc1/C=C(/CC(=O)O)c1nc2ccccc2o1,0.0%,4.7%
O=C(NCCc1ccc(F)cc1)c1[nH]c2ccccc2c1Cl,93.5%[activator],8.4%
COc1ccc2c(CNCc3ccc(C)o3)c(C(=O)O)n(Cc3ccccc3)c2c1,-12.6%,60.3%[activator]
COc1ccc2cc(S(=O)(=O)N3CCN(c4ccc(C)c(Cl)c4)CC3)ccc2c1,-8.0%,43.1%[activator]
O=C(COc1cc2oc(=O)cc(-c3ccccc3)c2cc1Cl)NCc1cccs1,0.4%,22.0%
Cc1cc(C(=O)COC(=O)c2nccnc2N)c(C)n1CCc1cccs1,191.0%[activator],-1.6%
CC(C)N(C)CCNC(=O)Nc1ccccc1C(F)(F)F,-5.4%,10.6%
CCn1cnc2c1c(=O)n(CC(=O)NCCc1cccc(F)c1)c(=O)n2Cc1ccccc1,19.2%,7.2%
O=C(NCc1cccc(F)c1)C(=O)Nc1cccc(O)c1,113.9%[activator],22.4%
CNC(=O)C1CCC(Cn2c(=O)c3sccc3n(CC(=O)Nc3ccccc3)c2=O)CC1 (stereo not given),-10.7%,-6.9%
COc1ccccc1N(Cc1cc2cccc(C)c2[nH]c1=O)C(=O)c1cccc(Cl)c1,7.9%,0.1%
CN(NC(=O)c1ccc2c(c1)OCC(=O)N2)c1ccccc1,-4.6%,-10.4%
CC(C)CNCc1ccc(-c2ccccc2F)o1,0.0%,17.9%
CCCCN1C(=O)C(O)(CC(=O)c2ccc(C(C)(C)C)cc2)c2ccccc21 (stereo not given),-3.8%,0.5%
COc1ccc(OCC(=O)Nc2ccc3oc(-c4ccccc4F)nc3c2)cc1,25.4%,8.2%
COCCNC(=O)c1ccc2c(=O)n(CCOC)c(SCC(=O)c3c[nH]c4ccccc34)nc2c1,-22.2%,-23.0%
COC(=O)C1CN(CCc2ccccc2)CCS(=O)(=O)N1Cc1ccc(C(F)(F)F)cc1 (stereo not given),?,?
Cn1nc(C(=O)Nc2cccc(C(F)(F)F)c2)c2c1-c1ccccc1S(=O)(=O)C2,8.2%,9.5%
COCCNC(=O)CCn1c(=O)c2cc(OC)c(OC)cc2n(CC(=O)Nc2ccc(F)c(Cl)c2)c1=O,-21.4%,-9.8%
COc1ccc(CSc2nc3ccncc3n2CC(=O)Nc2ccc(C)c(F)c2)cc1,78.0%[activator],-11.8%
CS(=O)(=O)N1CCC(N2CCN(Cc3ccc(F)cc3)C(=O)C2=O)CC1,-13.4%,-12.8%
CCOc1ccc(NC(=O)c2oc3ccccc3c2NC(=O)COc2cccc(OC)c2)cc1,-19.7%,-10.7%
CCOC(=O)c1cccc(NC(=O)c2cc(S(=O)(=O)N3CCCC3)cn2C)c1,-12.3%,57.6%[activator]
Cn1c(NCCN(CCO)CCCc2ccc([N+](=O)[O-])cc2)cc(=O)n(C)c1=O,-2.1%[11.5 µM],3.5%
CC12C3C=CC(C3)C1([Si](C)(C)C)C2C(=O)O (stereo not given),23.0%,22.8%
CCOC(=O)c1ccoc1CN(CC)CC,17.6%,6.8%
CCc1ccc2occ(CC(=O)Nc3c(C(=O)Nc4ccc(OC)cc4)oc4ccccc34)c2c1,3.9%,-9.9%
Clc1ccccc1C(c1ccccc1)(c1ccccc1)n1ccnc1,-12.9%[11.5 µM],?
Cc1cccc(C)c1NC(=O)CCS(=O)(=O)c1ccc2c(c1)n(C)c(=O)c(=O)n2C,0.0%,-14.0%
COC(=O)c1n[nH]n(-c2ccccc2)c1=O,-1.7%,-2.7%
Cc1ccccc1NC(=O)c1cnn2cccnc12,144.0%[activator],-4.6%
CNC(=O)C1CCN(Cc2cccc(C(F)(F)F)c2)CC1,8.4%,8.9%
Cc1ccc(C)c(N2CCN(S(=O)(=O)c3ccc4c(c3)CC(=O)N4C)CC2)c1,-20.3%,-11.9%
CCC1CN(CC(=O)Nc2ccc(NC(C)=O)cc2)c2ccccc2S1 (stereo not given),23.4%,21.5%
COc1ccc(-c2nc3scc(CCNC(=O)c4cc(OC)cc(OC)c4)n3n2)cc1,45.8%[activator],-1.1%
Cn1c(=O)c(=O)n(C)c2cc(NS(=O)(=O)c3ccc(Br)cc3)c(Cl)cc21,-23.8%,75.6%[activator]
O=S(=O)(NC(c1ccccc1)c1cccs1)c1ccccc1 (stereo not given),34.9%[activator],49.7%[activator]
CCOc1ccc(N2CC(c3nc4ccccc4n3CC(C)C)CC2=O)cc1 (stereo not given),-11.9%,13.3%
O=C(COc1coc(CN2CCCCC2)cc1=O)NCc1ccccc1,-9.0%,-18.2%
COc1cccc2cc(C(=O)NCCc3c(C)[nH]c4ccccc34)c(=O)oc12,-12.3%,1.6%
# New compounds follow:
SMILES,StopGo FLuc,2A Renilla
O=C(CSCc1ccccn1)N(Cc1ccsc1)C1CC1,0.0%,7.6%
Cc1ccc2nc(-c3ccsc3)c(Nc3ccccc3C)n2c1,-15.2%,1.7%
COc1ccc(OC)c(NC(=O)COC(=O)c2sccc2C)c1,22.8%,-2.5%
CCCCNC(=O)CCn1c(=O)c2ccccc2n(Cc2cccc(Cl)c2)c1=O,-5.3%,7.5%
Nc1nccnc1C(=O)Nc1cccc(/C=C/c2ccccn2)c1,22.6%,?
CSc1cccc(NC(=O)/C=C/c2cccs2)c1,263.6%[activator],27.8%
CC(C)=CC(=O)Nc1cccc(OCc2ccc(F)cc2)c1,0.0%,57.6%[activator]
Cn1cc(C(=O)N2CCN(S(=O)(=O)c3cccc(F)c3)CC2)c2ccccc21,-7.0%,8.0%
COCCCNC(=O)CCCN1C(=O)CCn2nc(-c3cn(C)c4ccccc34)cc21,-11.5%,-5.3%
N#Cc1nc(COc2cccc(Cl)c2)oc1N1CCCCC1,46.2%[activator],-6.2%
Cc1cccc(N2CCN(C(=O)CN3C(=O)COc4ccc(S(=O)(=O)N5CCOCC5)cc43)CC2)c1C,-9.4%,-9.4%
CCCCOc1ccc2c(=O)c(-c3ccc4c(c3)OCCCO4)c(C)oc2c1,0.0%,24.2%
Cc1cccc(N/N=C/c2ccc(C#N)cc2)c1,94.8%[activator],10.2%
CC(C)CCN1NC2(CCC(C(C)(C)C)CC2)NC1=S (stereo not given),0.9%,121.7%[activator]
O=C(Nc1ccccc1F)c1cc(-c2ccccn2)nc2ccccc12,-2.3%,-1.2%
COc1ccc2cc(CNC(=O)CNC(=O)c3ccccc3)ccc2c1,6.8%,6.8%
CC(=O)C1=C(c2ccccc2)N(C(C)=O)n2c(nnc2C2CCCCC2)S1,?,-8.0%
CS(=O)(=O)NCC1CCCN(c2nc3ccccc3o2)C1 (stereo not given),1.9%,-2.9%
CCOc1ccc(NC(=O)Cn2c(=O)n(CCCCC(=O)NCc3ccc4c(c3)OCO4)c(=O)c3ccccc32)cc1,-12.3%,6.1%
COc1cc(-c2nc3ccccc3s2)ccc1OC(C)C,6.9%,-15.6%

# Some of these compounds in order of molar mass, falling.
SMILES,StopGo FLuc,2A Renilla
CCOc1ccc(NC(=O)Cn2c(=O)n(CCCCC(=O)NCc3ccc4c(c3)OCO4)c(=O)c3ccccc32)cc1,-12.3%,6.1%
Cc1cccc(N2CCN(C(=O)CN3C(=O)COc4ccc(S(=O)(=O)N5CCOCC5)cc43)CC2)c1C,-9.4%,-9.4%
COCCCNC(=O)CCCN1C(=O)CCn2nc(-c3cn(C)c4ccccc34)cc21,-11.5%,-5.3%
CCCCNC(=O)CCn1c(=O)c2ccccc2n(Cc2cccc(Cl)c2)c1=O,-5.3%,7.5%
Cn1cc(C(=O)N2CCN(S(=O)(=O)c3cccc(F)c3)CC2)c2ccccc21,-7.0%,8.0%
CC(=O)C1=C(c2ccccc2)N(C(C)=O)n2c(nnc2C2CCCCC2)S1,?,-8.0%
CCCCOc1ccc2c(=O)c(-c3ccc4c(c3)OCCCO4)c(C)oc2c1,0.0%,24.2%
COc1cccc2cc(C(=O)NCCc3c(C)[nH]c4ccccc34)c(=O)oc12,-12.3%,1.6%
O=C(COc1coc(CN2CCCCC2)cc1=O)NCc1ccccc1,-9.0%,-18.2%
COc1ccc2cc(CNC(=O)CNC(=O)c3ccccc3)ccc2c1,6.8%,6.8%
O=C(Nc1ccccc1F)c1cc(-c2ccccn2)nc2ccccc12,-2.3%,-1.2%
COc1ccc(OC)c(NC(=O)COC(=O)c2sccc2C)c1,22.8%,-2.5%
Cc1ccc2nc(-c3ccsc3)c(Nc3ccccc3C)n2c1,-15.2%,1.7%
N#Cc1nc(COc2cccc(Cl)c2)oc1N1CCCCC1,46.2%[activator],-6.2%
Nc1nccnc1C(=O)Nc1cccc(/C=C/c2ccccn2)c1,22.6%,?
CC(C)=CC(=O)Nc1cccc(OCc2ccc(F)cc2)c1,0.0%,57.6%[activator]
CC(C)CCN1NC2(CCC(C(C)(C)C)CC2)NC1=S (stereo not given),0.9%,121.7%[activator]
CSc1cccc(NC(=O)/C=C/c2cccs2)c1,263.6%[activator],27.8%
Cc1cccc(N/N=C/c2ccc(C#N)cc2)c1,94.8%[activator],10.2%

# Other results:
SMILES,StopGo FLuc,2A Renilla
CC(C)c1nc(N(C)CCO)c(C#N)c2c1CCCC2,-18.4%,-7.2%
CCC1CCCCN1CCCNC(=O)c1cc2c(=O)n(CC)c3ccccc3c2s1 (stereo not given),-6.9%,-0.7%
O=C(Cn1c(=O)n2nc(-c3cccc(F)c3)nc2c2ccccc21)N1CCN(c2ccc(F)cc2)CC1,-3.0%,-10.0%
COc1cccc2cc(C(=O)OCC(=O)c3ccc(C)cc3)c(=O)oc12,-0.1%,18.8%
Cc1cc(NC(=S)NCCc2ccccc2)ccc1Br,123.4%[activator],112.0%[activator]
Cn1c(=O)c2c(ncn2CC(=O)Nc2ccc(C34CC5CC(CC(C5)C3)C4)cc2)n(C)c1=O,3.1%,-7.8%
O=C(CSc1nnnn1C1CC1)N1CCN(S(=O)(=O)c2ccc3c(c2)CCC3)CC1,8.5%,-5.7%
CC(C)c1c(C(=O)Nc2ccccc2)c(-c2ccccc2)c(-c2ccc(F)cc2)n1CC[C@@H](O)C[C@@H](O)CC(=O)O,-2.9%,-10.5%
COCCNC(=O)C(=O)Nc1ccc2nc3n(c(=O)c2c1)CCCCC3,49.1%[activator],32.9%[activator]
Oc1ccccc1-c1nnco1,13.3%[11.5 µM],-6.2%
O=C(Cc1c[nH]c2ccccc12)Nc1nc2ccc(Cl)cc2s1,-9.6%,-6.8%
CCc1nc2ccccc2n1CCCCOc1cccc(C)c1,?,?

# Single records, as listed above:
# `N#Cc1nc(COc2cccc(Cl)c2)oc1N1CCCCC1` in the list: StopGo FLuc = 46.2%[activator]; 2A Renilla = -6.2%
# `COc1cc(-c2nc3ccccc3s2)ccc1OC(C)C` in the list: StopGo FLuc = 6.9%; 2A Renilla = -15.6%
